Mtb growth: Confirmatory growth inhibition assay against Mycobacterium tuberculosis H37Rv, potency (AID 1949) | 1.6% of 100,000 active | most inactive calls were filed without a number and no value below 0 was filed | inhibition, % at 10 µg/mL; hits with a dose series show IC50 in µg/mL;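 active = confirmed in a dose series; inconclusive = about 50% or more but not retested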;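 also: bacteria grown 7 days with compound before Alamar blue readout; 0% = untreated bacteria and 100% = reference antibiotic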
Starred values were filed as active, the others as inactive; i = inactive; ? = inconclusive.

SMILES | Mtb growth
CCOc1ccc(S(=O)(=O)Nc2cccc(Cl)c2C)cc1 | i
COc1ccccc1OCC(=O)Nc1cccc(C(=O)N2CCOCC2)c1 | 0.8%
O=C(Cn1cc(CO)c2ccccc21)Nc1ccccc1 | i
CSc1ccccc1NS(=O)(=O)c1cc(Cl)ccc1Cl | i
COc1ccc(C(=O)Oc2ccc(C(C)=O)cc2)cc1Br | 12.7%
CC(NC(=O)C(=O)NCCCn1ccnc1)c1ccccc1 (stereo unspecified) | i
NCCCN1CCC(Cc2ccccc2)CC1 | i
O=C(NCc1cccnc1)c1cc2nc(-c3cccs3)cc(C(F)(F)Cl)n2n1 | i
COc1ccc(S(=O)(=O)Nc2cccc(SC)c2)cc1Cl | 4.8%
O=C(c1ccccc1)C1CCCCC1S(=O)(=O)O (stereo unspecified) | i
O=[N+]([O-])c1ccc2c(c1)nc1n2CCN(Cc2ccccc2)C1 | i
O=C(Nc1ccc(Cc2ccncc2)cc1)c1cccs1 | i
Cc1ccc(C)c(NS(=O)(=O)c2ccc(NC(=O)c3ccc(CN4CCOCC4)cc3)cc2)c1 | i
O=C(O)CCc1ccc(-c2cccs2)n1NC(=O)c1ccc(Cl)cc1 | i
CN(C)c1ccc(-n2cccc2/C=C/[N+](=O)[O-])cc1 | 49.5%
COc1ccc(-n2c(-c3cnccn3)n[nH]c2=S)cc1 | i
CC(=O)c1cccc(OCc2ccc([N+](=O)[O-])cc2)c1 | 6.0%
CC12CCC(C(=O)Nc3c(Cl)cccc3Cl)(OC1=O)C2(C)C (stereo unspecified) | i
COc1ccc(NC(=O)c2ccc(C#CC(C)(C)O)s2)cc1 | 0.31µg/mL*
Cc1ccnc(NC(c2cccc(F)c2)c2ccc3ccc(C)nc3c2O)c1 (stereo unspecified) | 8.3%
O=C(Cn1cnc2ccccc2c1=O)Nc1ccc(OC(=O)c2ccco2)cc1 | i
Cc1c(C)c2n(C)c3ccccc3n2c1C(=O)NC(=O)c1ccccc1 | i
O=C(O)c1ccc(NC(=S)NC(=O)c2ccccc2F)cc1 | i
CCCS(=O)(=O)N1CCN(Cc2ccc(CC)cc2)CC1 | i
COc1ccc(C)cc1NC(=O)CSc1ccc(Cl)cc1 | ?
Additional structures
SMILES | Mtb growth
CCOC(=O)N1CCN(C(=O)CN(c2cccc(Cl)c2)S(=O)(=O)c2ccc(Cl)cc2)CC1 | i
CSc1ccc(C2C3=C(CC(C)(C)CC3=O)NC3=C2C(=O)CC(C)(C)C3)cc1 | i
CCOc1cc(C2NC(=S)NC(C)=C2C(=O)OC)cc(Br)c1OCC (stereo unspecified) | 0.3%
N#Cc1ccc(-c2ccc(OCC(=O)N3CCN(c4cccc(Cl)c4)CC3)cc2)cc1 | i
C=CCNc1nc(Nc2ccc(OC)cc2OC)nc(OCC)n1 | 1.0%
CCOc1ccc(-n2nc3ccc(NC(=S)NC(=O)c4cc5ccccc5o4)cc3n2)cc1 | i
COc1ccc(N(CC(=O)Nc2c(C)cccc2C(C)C)S(C)(=O)=O)cc1OC | i
Cc1cc(I)ccc1NC(=S)NC(=O)Cc1ccc(Cl)cc1 | i
COc1cccc2cc(C(=O)C3=C(O)C(=O)N(CCCn4ccnc4)C3c3ccccn3)oc12 (stereo unspecified) | i
CCCCOc1ccccc1NC(=O)c1ccc(Br)cc1 | 40.5%
Cc1ccc(NC(=O)c2ccc(OC(=O)c3ccco3)cc2)cc1 | 15.9%
Cc1nn(C)c(C)c1NC(=S)Nc1ccc(F)c(Cl)c1 | i
CCOC(=O)C1=C(C)Nc2nnnn2C1c1ccccn1 (stereo unspecified) | i
CCOc1ccc(S(=O)(=O)N(CC(=O)Nc2cc(OC)ccc2OC)c2ccc(C)cc2)cc1 | 6.9%
CCOc1cc(C(=O)NCCC(c2ccccc2)c2ccccc2)cc(OCC)c1OCC | 2.5%
COc1ccc2nc(NC(=O)COc3ccc(C)cc3Br)sc2c1 | i
Cc1c(NC(=O)c2ccc(-c3ccc(Cl)cc3)o2)cccc1-c1nc2ncccc2o1 | 0.7%
O=C(Nc1cc(F)c(F)cc1Cl)Nc1cccc(Cl)c1Cl | i
Clc1ccccc1OCc1nc(-c2ccncc2)no1 | 3.8%
CN(C(=O)CSc1nc(N)c2c3c(sc2n1)CSC(C)(C)C3)c1ccccc1 | ?
O=C(Cn1c(=S)nc2ccccn21)N1CCc2ccccc2C1 | 1.0%
CCc1nc(SCC(=O)NC(C)c2ccccc2)c(C#N)c(C(F)(F)F)c1C (stereo unspecified) | 3.4%
CCOC(=O)Cc1nc2nc(C)cc(C)n2n1 | 0.4%
CCN1CCN(c2ccc(NC(=O)Cn3cnc4c(=O)n(C)c(=O)n(C)c43)cc2Cl)CC1 | i
Cc1ccc(N2CCN(CC(O)COc3ccc4ccccc4c3)CC2)c(C)c1 (stereo unspecified) | 9.31µg/mL*
New compounds follow
SMILES | Mtb growth
O=C1CC(N2CCN(c3nc4ccccc4s3)CC2)C(=O)N1 (stereo unspecified) | i
NS(=O)(=O)c1ccc(CCNC(=O)C2c3ccccc3Oc3ccccc32)cc1 | i
CSc1ccccc1NC(=O)c1ccoc1C | i
CC(=O)Oc1ccccc1C(=O)Nc1ccc(Br)cc1Cl | 4.23µg/mL*
O=C(NC1CCCCC1)c1ccc(S(=O)(=O)c2ccccc2)cc1 | i
C=CCn1c(Oc2ccc(Br)cc2)nc2c1c(=O)n(C)c(=O)n2C | i
CC1(C)C(=O)C2(C(=O)Nc3cccc(NC(=O)C45CCC(C4)C(C)(C)C5=O)c3)CCC1C2 | 0.7%
CC1CCCCN1C1CCN(CCc2ccccc2)CC1 (stereo unspecified) | i
Cc1ccc(C(=O)NCCCNc2ccccc2[N+](=O)[O-])cc1 | 2.2%
O=[N+]([O-])c1cc(-c2cnc3ccccc3n2)ccc1Oc1ccc(F)cc1 | i
O=C(COc1ccccc1)NCc1ccco1 | i
CN(C)S(=O)(=O)c1cc(C(=O)Nc2ccc(O)cc2)c(Cl)cc1Cl | i
Cc1ccc(F)cc1NC(=O)c1ccccc1C | i
NC(=O)C1(N2CCCCC2)CCN(C2CC(=O)N(c3ccccc3F)C2=O)CC1 (stereo unspecified) | i
CCn1cc(C(=O)NC(=S)Nc2sc3c(c2C(=O)OC)CCCCCC3)cn1 | i
COc1ccc(Br)cc1C(=O)Nc1cc(Cl)ccc1C | 3.1%
Cc1ccc(NC(=S)NCCc2ccccc2)nc1 | i
CCOc1cccc(OCCNCCN)c1 | i
COc1ccc(C(=O)NC(=S)Nc2c(Cl)cc(Cl)cc2C(=O)O)cc1[N+](=O)[O-] | 0.6%
Cc1ccccc1C(=O)NC(=S)Nc1ccc(NC(=O)c2cc3ccccc3o2)cc1 | i
Cc1nc2nc(CSc3nc4ccccc4s3)cc(=O)n2[nH]1 | i
CCC(=O)Nc1ccc(N2CCN(Cc3ccccc3Cl)CC2)c(Cl)c1 | ?
CC(=O)Nc1ccc(NC(=O)C(C)SCc2ccccc2)cc1 (stereo unspecified) | i
O=C(NCc1cccs1)C(c1ccccc1)c1ccccc1 | i
COC(=O)c1cc(-c2ccccc2)sc1NC(=S)NNC(=O)c1ccccn1 | i
Continued.
SMILES | Mtb growth
Cn1c(CNC(=O)c2ccccc2F)nnc1SCc1ccc(Cl)cc1 | 1.3%
CNCCCOc1ccc(C(C)(C)c2ccccc2)cc1 | i
Cc1cc(C(=O)Nc2ccc(S(=O)(=O)N3CCC(C)CC3)cc2)ccc1[N+](=O)[O-] | i
Cn1cc(Cl)c(C(=O)OCc2ccc([N+](=O)[O-])cc2)n1 | 20.7%
COc1ccccc1OC(=O)C1CCCCC1 | i
COc1ccc(OC)c(C(=O)CC2(O)C(=O)N(Cc3ccc(Cl)cc3)c3ccccc32)c1 (stereo unspecified) | i
O=C(COc1cccc2ccccc12)Nc1ccc(Br)cc1C(=O)O | i
CCN(CC)C(=O)c1ccccc1OC | 2.7%
O=Cc1ccc(-c2ccc3c(c2)C(=O)OC3)o1 | i
Cc1ccc(C(=O)OCc2ccccc2F)cc1[N+](=O)[O-] | i
COC(=O)c1sc(NC(=O)CSc2ccc(Cl)cc2)c(C(=O)OC)c1C | i
C=CCc1cc(C)ccc1OCCOCCN1CCOCC1 | i
Nc1nnc(SCC(=O)NC2CCCCCC2)s1 | 1.9%
CC(=O)c1ccc(NC(=S)NNC(=O)c2ccc(OC(C)C)cc2)cc1 | i
COc1ccc(OC)c(-n2c(C)cc(C=O)c2C)c1 | i
Cc1ccc(-c2nn(CCC(=O)N3CCN(Cc4ccccc4)CC3)c(=O)c3ccccc23)cc1 | 4.9%
COC(=O)c1cc(OC)c(OC)cc1NC(=O)CSc1nnnn1-c1ccccc1OC | 5.7%
Cc1ccc(NC(=O)C2C(=O)OC(C)(C)C2C(C)C(=O)c2ccc(C)cc2)cc1 (stereo unspecified) | i
O=S(=O)(Nc1ncccn1)c1ccc(NC(=S)N2CCN(C(c3ccccc3)c3ccccc3)CC2)cc1 | i
Cn1c(=O)n(Cc2ccccc2)c(=O)c2c1nc(N1CCOCC1)n2Cc1ccccc1 | i
COc1ccc(NS(=O)(=O)c2c(C)cc(C)cc2C)c(OC)c1 | 2.9%
C=CCn1c(SCC(=O)c2ccccc2)nnc1-c1ccncc1 | i
Cc1c(OCc2c(F)cccc2Cl)ccc2c(C(F)(F)F)cc(=O)oc12 | i
CC(C)CNC(=O)c1ccc(NC(=O)Cc2ccccc2)cc1 | 3.6%
Cc1ccc(S(=O)(=O)CC(=O)N(C2CCCCC2)C2CCCCC2)cc1 | i

Entries above that contain an NH in an aromatic ring:
SMILES | Mtb growth
COc1ccc(-n2c(-c3cnccn3)n[nH]c2=S)cc1 | i
Cc1nc2nc(CSc3nc4ccccc4s3)cc(=O)n2[nH]1 | i

As entered above.
Reading for Cn1c(CNC(=O)c2ccccc2F)nnc1SCc1ccc(Cl)cc1 under Mtb growth: 1.3%
Reading for COC(=O)c1cc(OC)c(OC)cc1NC(=O)CSc1nnnn1-c1ccccc1OC under Mtb growth: 5.7%

(listing goes on)
SMILES | Mtb growth
COc1ccc(/C(N)=N/OC(=O)COc2ccc(Br)cc2C)cc1OC | i
CCCC1Cc2[nH]c(=O)c(C(=O)O)cc2CO1 (stereo unspecified) | i
Cc1ccc2oc(=O)n(CCOc3ccc(C(C)(C)C)cc3)c2c1 | i
COC(=O)c1cccc(NC(=S)NCCc2ccccc2)c1 | 1.4%
Cc1onc(-c2ccccc2Cl)c1C(=O)NCCOC12CC3CC(CC(C3)C1)C2 | i
Cc1ncc([N+](=O)[O-])n1CC(=O)Nc1ccccc1 | i
Cn1c(NC(=O)c2ccc(C(C)(C)C)cc2)cc(=O)n(C)c1=O | i
CC(C)(C)C(=O)CN1C2=NCCN2c2ccccc21 | i
Cc1cccc(-c2nc3cc([N+](=O)[O-])ccc3o2)c1 | i
CCCCc1cc(=O)oc2c(C)c(OC(C)C(C)=O)ccc12 (stereo unspecified) | i
CCOc1ccc(NC(=O)CN2C(=O)c3ccccc3S2(=O)=O)cc1 | i
CCC(C)c1ccccc1NC(=S)NC(=O)c1ccco1 (stereo unspecified) | 39.4%
Brc1ccc(OCc2nc(-c3cccnc3)no2)cc1 | 6.1%
COc1ccc(Br)cc1C(=O)NC(=S)Nc1nnn(C)n1 | i
Cc1ccc(O)c(C(CC(=O)N(C)Cc2ccccc2)c2ccccc2)c1 (stereo unspecified) | i
CCOc1ccccc1NC(=O)CSc1nc2ccccc2c(=O)n1-c1ccc(Cl)cc1 | i
Cc1ccc(NC(=O)c2ccccc2I)c([N+](=O)[O-])c1 | i
Fc1ccc(NC(=S)N2CCN(c3cccc(C(F)(F)F)c3)CC2)cc1 | i
CC(C)c1ccc(N2CC(C(=O)Nc3nccs3)CC2=O)cc1 (stereo unspecified) | 5.3%
Cc1cccc(C)c1NC(=O)CSc1nnc(Cc2cccs2)n1-c1ccccc1 | i
CCOc1cc(C)c(C(C)C)cc1S(=O)(=O)NCc1ccccn1 | i
CC1=C(C(=O)Nc2ccccc2F)C(c2ccc(F)cc2)NC(=O)N1 (stereo unspecified) | i
COc1ccc(CCNC(=O)CCc2ccc(S(=O)(=O)NCC(C)C)cc2)cc1OC | 12.7%
CC(C)C(=O)NC(c1ccc2c(c1)OCO2)c1cc([N+](=O)[O-])c2cccnc2c1O (stereo unspecified) | i
CCc1cccc(NC(=O)Nc2ccc(Cl)cc2)c1 | i

Retrieved by compound from the entries so far:
SMILES | Mtb growth
COc1ccc(CCNC(=O)CCc2ccc(S(=O)(=O)NCC(C)C)cc2)cc1OC | 12.7%
CCC(C)c1ccccc1NC(=S)NC(=O)c1ccco1 (stereo unspecified) | 39.4%
CC(C)(C)C(=O)CN1C2=NCCN2c2ccccc21 | i
Cc1ncc([N+](=O)[O-])n1CC(=O)Nc1ccccc1 | i

(list continues)
SMILES | Mtb growth
CC(C)(C)Sc1cc(C(=O)O)sc1C(=O)O | 6.3%
O=C1c2cccc3cccc(c23)C(=O)N1CC(=O)N1CCc2ccccc21 | i
CC(C)C(=O)Nc1ccc(C(=O)NNC(=O)NC2CCCCC2)cc1 | i
O=C(CN1C(=O)C2CCC(c3ccccc3)CC2C1=O)Nc1ccc(Cl)cc1 (stereo unspecified) | i
COc1ccc(-c2noc(COc3cc(C)c(Cl)c(C)c3)n2)cc1OC | 0.6%
COc1ccc2nc(NC(=O)C(C)N3C(=O)c4ccccc4C3=O)sc2c1 (stereo unspecified) | i
Cc1cccc(C(=O)NCCc2nc3ccccc3[nH]2)c1 | i
CCOc1ccccc1NC(=O)c1c(NC(=O)c2cccc(F)c2)sc2c1CCCCC2 | i
O=C(NCCCCNC(=O)c1cc(Cl)ccc1Cl)c1cc(Cl)ccc1Cl | 2.1%
O=C(Cc1ccccc1)Nc1cccc(O)c1 | i
COc1ccc(C2(C(=O)Nc3ccc(C(=O)NCc4ccccc4)cc3)CCOCC2)cc1 | 0.1%

Rewritten with tabs: part of the list above.
Structure	Mtb growth
CC(NC(=O)C(=O)NCCCn1ccnc1)c1ccccc1 (stereo unspecified)	i
COc1ccc(OC)c(-n2c(C)cc(C=O)c2C)c1	i
Cc1ccnc(NC(c2cccc(F)c2)c2ccc3ccc(C)nc3c2O)c1 (stereo unspecified)	8.3%
O=C(O)CCc1ccc(-c2cccs2)n1NC(=O)c1ccc(Cl)cc1	i
O=C1CC(N2CCN(c3nc4ccccc4s3)CC2)C(=O)N1 (stereo unspecified)	i

High-throughput results from PubChem BioAssay.

An excerpt; count on the stated rates, not on these rows.
